Screening results as filed in PubChem BioAssay.
SARS PLpro yeast – inhibitors of SARS-CoV papain-like protease in yeast | S. cerevisiae expressing SARS-CoV PLpro, growth rescue; control for the full effect not named in the record | Potency, µM (titrated, usually from 32.9 µM), for inactives: top-dose activity, positive = growth rescue | hit rate 0.19% among 330,000 | AID 485353; active means well fitted rising curve with a large enough effect; inconclusive means small, poorly fitted or top-dose-only effect; inactive means no such curve, though single readings can be large or run the other way; note: 0% is about no effect; nearly all actives have a fitted effect of over 55% in size; growth read by luminescence after 48 h
Lassa entry inh – Lassa virus entry inhibition. Lassa virus pseudotype entry inhibition, cell reporter; control for the full effect not named in the record. Potency, µM (highest dose often 37.9 µM), for inactives: at the top dose activity change, negative = inhibition, usual class: inhibitors. hit rate 1.2% among 300,000. AID 540256; active means well fitted inhibition curve with a large enough effect; inconclusive means small, poorly fitted or top-dose-only effect, or effect the other way; inactive means flat fitted curve, though single readings scatter; tested in HEK293 cells; note: % is set by controls: 0 for no effect and ±100 for the full control effect; nearly all actives have a fitted effect of over 50% in size; luciferase read-out
Cruzain noTriton – blocks cruzain activity in detergent-free assay; P25779; purified cruzain, Z-FR-AMC fluorescence, no detergent; Potency, µM, for the others: max response, negative = inhibition, hits mostly inhibitors; hit rate 2.3% among 200,000; AID 1476;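 note: plate controls were enzyme without inhibitor for no effect and buffer without enzyme for full effect; nearly all actives have a fitted effect of over 40% in size; top concentration of the series not given in the record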
Target sequence (P25779 123-467 limits assumed): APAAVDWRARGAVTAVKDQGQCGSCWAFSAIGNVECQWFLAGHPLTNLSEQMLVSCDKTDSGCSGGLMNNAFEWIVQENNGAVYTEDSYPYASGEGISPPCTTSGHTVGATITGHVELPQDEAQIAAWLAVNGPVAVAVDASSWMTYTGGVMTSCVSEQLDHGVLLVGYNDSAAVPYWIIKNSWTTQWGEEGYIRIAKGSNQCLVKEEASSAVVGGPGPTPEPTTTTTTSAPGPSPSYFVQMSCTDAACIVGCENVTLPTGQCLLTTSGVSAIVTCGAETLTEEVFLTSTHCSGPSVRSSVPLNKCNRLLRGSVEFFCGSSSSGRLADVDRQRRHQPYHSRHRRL
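Detergent-free condition (0.00005% Triton X-100) in acetate buffer pH 5.5 with DTT. 1.5 nM enzyme and compound were pre-mixed 15 min, then 2 uM Z-FR-AMC substrate added; reaction progress from fluorescence change between first and third reads (60 s).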
RE007 growth inh – less growth of the S. pombe RE007 Vpr strain | S. pombe RE007 Vpr strain, BacTiter-Glo ATP luminescence, 24 h; control for the full effect not named in the record | Potency, µM (series often up to 92.2 µM), inactives show top-dose activity change, negative = less growth | hit rate 0.21% among 360,000 | AID 651644; active = well fitted falling curve with a large enough effect; inconclusive = small, poorly fitted or top-dose-only effect; inactive = no such curve, though single readings can be large or run the other way;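 note: % is set by controls: 0 for no effect and ±100 for the full control effect; nearly all actives have a fitted effect of over 50% in size; the assay follows cell death caused by Vpr and the record does not say whether a fall means rescue or toxicity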
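Fission yeast RE007 carrying one integrated HIV-1 vpr copy, seeded at OD 0.01 in PMG+AL medium with 23 nL pinned compound. Grown 24 h at 30 degrees; viability read by BacTiter-Glo luminescence after 5 min.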
Cruzain inh Det – inhibitors of Trypanosoma cruzi cruzain with detergent; P25779; purified cruzain, Z-FR-AMC fluorescence, 0.01% Triton; Potency, µM, inactives show max response, negative = inhibition, hits mostly inhibitors; hit rate 0.43% among 200,000;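 note: plate controls were neutral wells for no effect and buffer without enzyme for full effect; nearly all actives have a fitted effect of over 40% in size; top concentration of the series not given in the record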
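Compounds were screened in titration against cruzain (1.5 nM) with 0.01% Triton X-100 to counter colloidal aggregation. Activity was the AMC fluorescence increase over 60 s after adding 2 uM Z-FR-AMC at pH 5.5.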
NS1 function inh – influenza NS1 inhibition. hit rate 0.4% among 270,000. Potency, µM (doses to about 46.1 µM), for the others: at the top dose activity, positive = more growth. S. cerevisiae slowed by influenza A NS1, growth recovery by OD600; active means well fitted rising curve with a large enough effect; inconclusive means small, poorly fitted or top-dose-only effect; inactive means no such curve, though single readings can be large or run the other way; note: nearly all actives have a fitted effect of over 50% in size
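Growth recovery, yeast-based: influenza A NS1 expressed in S. cerevisiae causes slow growth, and suppressors are detected by OD600. The parent strain without NS1 is used as positive control.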
MARV entry inh – blocks Marburg virus binding to or entry into cells; Marburg virus pseudotyped entry inhibition, cell reporter; control for the full effect not named in the record; about a third of the inactives were read at about 46 µM; Potency, µM (highest dose often 37.8 µM), inactives show top-dose activity change, negative = inhibition, actives largely listed as inhibitors; hit rate 1.8% among 300,000; AID 540276; active = well fitted inhibition curve with a large enough effect; inconclusive = small, poorly fitted or top-dose-only effect, or effect the other way; inactive = flat fitted curve, though single readings scatter; tested in HEK293 cells; about a fifth of its hits are not listed in these tables; note: % is set by controls: 0 for no effect and ±100 for the full control effect; luciferase read-out
2A StopGo – FMDV 2A StopGo reporter, luciferase signal; human cells with a luciferase reporter of 2A StopGo recoding; control for the full effect not named in the record; Potency, µM (highest dose often 57.9 µM), for the others: top-dose signal change, negative = less light; hit rate 1.2% among 410,000; AID 1159524; active = well fitted falling curve with a large enough effect; inconclusive = small, poorly fitted or top-dose-only effect; inactive = no such curve, though single readings can be large or run the other way; tested in HEK293T cells; note: % is set by controls: 0 for no effect and ±100 for the full control effect; nearly all actives have a fitted effect of over 45% in size; luciferase light after 4 h
Active calls of the source: *; ? = inconclusive; nt = no result given; [ ] = dose if it differs, or a comment. Unless noted, calls come from the whole dose curve; as a rule, active = well fitted curve in the direction sought with a large enough effect; inconclusive = small, poorly fitted or top-dose-only effect, or another doubt; inactive = no such curve, though single readings can be large; an effect the other way counts as inactive or inconclusive. Potency is the fitted concentration of half-maximal effect.

SMILES	SARS PLpro yeast	Lassa entry inh	Cruzain noTriton	RE007 growth inh	Cruzain inh Det	NS1 function inh	MARV entry inh	2A StopGo
Cc1cc(C(=O)NCCCN2CC(C)CC(C)C2)n(-c2ccccc2)n1 (stereo not given)	1.7%	nt	-9.2%	3.9%	6.0%	5.6%	nt	-6.1%
S=C1CCC(c2ccc(Br)cc2)=NN1c1ccccc1	1.5%	nt	nt	?	nt	0.2%	nt	-24.4%
COC(=O)CSc1nnc(-c2ccc(NS(=O)(=O)c3ccccc3)cc2)o1	2.7%	9.1%	-2.9%	5.8%	-2.4%	-49.8%	14.7%	-14.6%
CC(=O)NC(Cc1ccccc1)C(=O)OCC(=O)c1ccc(F)cc1 (stereo not given)	7.9%	-2.7%	?	6.3%	-2.2%	-19.7%	2.6%	-7.8%
O=S(=O)(NCC1OCCc2ccccc21)c1ccccc1 (stereo not given)	2.2%	22.8%	12.0%	-1.8%	4.7%	9.3%	-3.8%	57.5%[activator]
Cc1cccc(C)c1OCCNC(=O)OCc1ccccc1	1.6%	nt	nt	7.6%	nt	-31.1%	nt	-9.9%
Cc1noc(NS(=O)(=O)c2ccc(NC(=O)c3ccc(Cl)c(S(=O)(=O)N(C)c4ccccc4)c3)cc2)c1C	2.4%	15.1%	nt	-3.7%	nt	nt	3.9%	-8.8%
Cc1ccc(-c2ccc(/C=C(\C#N)C(N)=S)n2C)cc1	-0.3%	?	nt	-1.5%	nt	0.5%	-10.6%	45.2%[activator]
COc1ccc(-c2[nH]ncc2CN2CCCO2)c(F)c1	3.8%	nt	nt	-13.2%	nt	2.2%	nt	-11.1%
Cc1csc2nc(CNC(=O)c3ccco3)cn12	3.0%	11.8%	-8.8%	12.1%	3.2%	2.1%	0.2%	51.3%[activator]
COc1ccc(C)cc1NC(=O)c1ccc(S(=O)(=O)N2CCCCC2)cc1	-3.9%	8.3%[46.1 µM]	nt	2.7%	nt	0.6%	-2.6%[46.1 µM]	-13.2%
CCOc1cc2c(cc1OCC)-n1cccc1C(c1cccc(F)c1)NC2 (stereo not given)	-3.7%	nt	nt	3.5%	nt	-2.8%	nt	?
COc1ccc(NC(=O)CSC2=Nc3ccccc3C3=NC(CCC(=O)NCCc4ccccc4)C(=O)N23)cc1 (stereo not given)	nt	1.7%[46.1 µM]	-5.8%	nt	1.3%	nt	nt	-27.2%
CCCOc1ccc(/C=C/C(=O)Nc2ccc([N+](=O)[O-])cc2)cc1	-10.7%	?	-27.0%	-3.3%	-10.9%	-35.8%	1.78µM*	5.62µM*
COc1ccc(CNC(=O)N[C@@H](CC(C)C)C(=O)O)cc1OC	-0.1%	nt	nt	0.2%	nt	1.8%	nt	-16.6%
CN(N=C(c1ccccc1)c1ccccc1)c1ccccc1	nt	10.6%[46.1 µM]	nt	-11.6%	nt	nt	-22.1%[46.1 µM]	21.1%
Cc1nn(C)cc1C(C(=O)NC1CCCCC1)N(Cc1ccc(F)cc1)C(=O)c1cnccn1 (stereo not given)	6.0%	2.7%	nt	-19.9%	nt	nt	1.5%[46.1 µM]	0.4%
Cc1ccc(S(=O)(=O)c2nc(-c3cccs3)oc2SC(C)C)cc1	nt	-6.1%[46.1 µM]	-4.1%	nt	-8.6%	nt	-23.5%[46.1 µM]	-13.3%
O=C(c1ccc2oc(Cc3ccc(Cl)cc3)nc2c1)N1CCCCC1CCO (stereo not given)	-2.6%	0.7%	nt	8.9%	nt	-18.1%	-23.0%	0.0%
CC(=O)Nc1sc(C)c(C)c1C(=O)OC(C)C	5.0%	24.3%	11.2%	-4.8%	-1.7%	1.0%	16.8%	-18.5%
CCOc1ccc(NC(=O)Cc2csc(COc3cccc(C)c3)n2)cc1	nt	-3.9%[46.1 µM]	-6.6%	nt	-1.2%	nt	0.4%[46.1 µM]	-4.9%
O=C(Cn1ncc2c(=O)oc3ccccc3c21)N(Cc1ccco1)C1CCCCC1	6.7%	nt	-10.2%	1.6%	-6.8%	-45.9%	nt	-23.5%
Cc1occc1C(=O)Nc1ccccc1NC(=O)c1ccoc1C	nt	5.8%	nt	-5.5%	nt	nt	-5.8%	-14.4%
COc1cc(/C=C2\CCC/C(=C\c3ccc(O)c(OC)c3)C2=O)ccc1O	-11.0%	?	nt	32.2%	nt	-0.8%	?	?
CCOC(=O)c1nn(-c2ccccc2C)c(=O)cc1OCC(=O)N1CCN(c2ccccc2)CC1	0.2%	3.1%	nt	-12.8%	nt	nt	-10.1%	?
COc1ccc(N(CC(=O)O)S(=O)(=O)c2ccccc2[N+](=O)[O-])c(OC)c1	0.6%	nt	nt	3.3%	nt	2.3%	nt	5.4%
CC1(C)CC(=O)C(C(C2=C(O)CC(C)(C)CC2=O)c2ccc(Cl)c([N+](=O)[O-])c2)C(=O)C1 (stereo not given)	0.1%	-0.6%	nt	7.5%	nt	-1.5%	-12.4%	-12.2%
O=C(NC1CCCc2c1cnn2-c1ccc(F)cc1F)c1ccccn1 (stereo not given)	-0.5%	-12.4%[46.1 µM]	nt	19.2%	nt	-4.3%	?	-27.9%
Cc1ccc(N2/C(=N/c3nc(C)cc(C)n3)NC(=O)CC2C(=O)O)cc1 (stereo not given)	-3.5%	11.3%	-3.7%	24.1%	5.7%	4.3%	27.5%	nt
Cc1cc(C)c(NC(=O)c2oc3ccccc3c2COc2ccccc2)c(C)c1	-0.1%	-25.9%	?	-8.5%	-4.5%	-6.3%	-3.1%	-20.6%
C/C(=N\NC(=S)NCc1ccccc1)c1ccc(Cl)cc1	-50.4%	5.8µM*	-13.7%	-9.5%	-5.6%	-32.2%	?	-7.9%
Cc1ccc(OCC(=O)N(C)CC(=O)Nc2cccc(F)c2)cc1	0.2%	?	nt	3.8%	nt	5.2%	2.9%	-2.6%
COc1cccc(CNC(=O)c2cccnc2Sc2ccccc2)c1	-2.1%	nt	nt	5.0%	nt	8.9%	nt	12.2%
O=C(/C=C/c1cccc(F)c1)OCC(=O)N1CCCc2ccccc21	2.5%	-22.4%	nt	-0.2%	nt	nt	15.5%[46.1 µM]	23.7%
C/C(=N\O)c1c(C)c2ccccc2n1C	2.7%	-1.1%	-0.2%	-6.3%	-3.4%	-60.8%	-6.2%	-9.5%
Oc1ccccc1Nc1nc(NCC2CCCO2)c2ccccc2n1 (stereo not given)	0.3%	?	-12.4%	-8.2%	-13.7%	-9.9%	14.6µM*	?
COc1ccc(S(=O)(=O)NCCSc2ccc(Cl)cc2)cc1OC	5.5%	-1.2%	0.1%	15.7%	-8.2%	-15.5%	1.2%	nt
COc1ccccc1NS(=O)(=O)c1cccc2nsnc12	1.0%	-4.5%	nt	3.2%	nt	2.4%	-2.5%	11.0%
COc1ccc(CCC(=O)NCC2CCCCC2)cc1OC	0.2%	1.8%[46.1 µM]	nt	4.1%	nt	-16.3%	?	0.0%
COc1cc(S(=O)(=O)N(Cc2cccs2)CC2CCCO2)ccc1-n1cnnn1 (stereo not given)	-4.1%	-0.9%	14.6%	6.7%	-0.9%	-14.2%	-0.2%	nt
Cc1cc(NC(=O)c2cccs2)ncc1NC(=O)C(C)C	-8.4%	?	nt	6.1%	nt	-3.4%	-2.2%	30.1%[activator]
COc1ccccc1OCCn1cc(C(=O)c2cccs2)c2ccccc21	nt	-16.0%[46.1 µM]	24.3%	nt	-5.4%	nt	-3.3%[46.1 µM]	-19.9%
CCCS(=O)(=O)C/C(N)=N/OC(=O)c1ccccc1Cl	-4.1%	9.1%[46.1 µM]	nt	2.8%	nt	-5.3%	?	32.9%[activator]
CCSc1nnc(NC(=O)c2ccc(S(=O)(=O)N(C)C)cc2)s1	-0.2%	-0.2%	nt	-3.6%	nt	nt	?	41.5%[activator]
CCOC(=O)c1cc(OC(=O)c2cccnc2)n(-c2ccccc2)n1	9.6%	nt	6.5%	nt	2.2%	2µM*	nt	nt

Given as labelled records: three of the compounds above
COc1cc(S(=O)(=O)N(Cc2cccs2)CC2CCCO2)ccc1-n1cnnn1 (stereo not given)
  SARS PLpro yeast: -4.1%
  Lassa entry inh: -0.9%
  Cruzain noTriton: 14.6%
  RE007 growth inh: 6.7%
  Cruzain inh Det: -0.9%
  NS1 function inh: -14.2%
  MARV entry inh: -0.2%
  2A StopGo: nt
Cc1cc(NC(=O)c2cccs2)ncc1NC(=O)C(C)C
  SARS PLpro yeast: -8.4%
  Lassa entry inh: ?
  Cruzain noTriton: nt
  RE007 growth inh: 6.1%
  Cruzain inh Det: nt
  NS1 function inh: -3.4%
  MARV entry inh: -2.2%
  2A StopGo: 30.1%[activator]
COc1ccccc1OCCn1cc(C(=O)c2cccs2)c2ccccc21
  SARS PLpro yeast: nt
  Lassa entry inh: -16.0%[46.1 µM]
  Cruzain noTriton: 24.3%
  RE007 growth inh: nt
  Cruzain inh Det: -5.4%
  NS1 function inh: nt
  MARV entry inh: -3.3%[46.1 µM]
  2A StopGo: -19.9%

Continuation.
SMILES	SARS PLpro yeast	Lassa entry inh	Cruzain noTriton	RE007 growth inh	Cruzain inh Det	NS1 function inh	MARV entry inh	2A StopGo
CCC(Sc1nc(-c2ccccc2)c(-c2ccccc2)[nH]1)C(=O)O (stereo not given)	0.1%	0.4%[46.1 µM]	nt	-2.9%	nt	0.5%	14.2%[46.1 µM]	-6.8%
CC(=O)Nc1ccc(NC(=O)C(C)n2nc([N+](=O)[O-])c(Br)c2C)cc1 (stereo not given)	7.5%	25.6%	0.7%	9.3%	-1.6%	11.7%	?	nt
Cc1c(N)cc2c(c1N)C(C)(C)CC2(C)C	nt	12.2%	nt	0.8%	nt	nt	0.0%	0.0%
Cc1csc(=O)n1CCC(=O)N(C)Cc1c(F)cccc1Cl	-2.1%	?	nt	-4.9%	nt	nt	-5.1%[46.1 µM]	23.9%
O=C(NNC(=O)C1CC1c1ccccc1)c1ccccc1F (stereo not given)	0.0%	-28.5%[46.1 µM]	nt	6.6%	nt	-4.1%	?	36.1%[activator]
O=C(COc1cccc(NC(=O)c2ccccc2)c1)c1ccccc1	-1.7%	-14.8%	nt	0.6%	nt	-1.2%	?	-24.0%
CC1CCc2c(sc(NS(=O)(=O)c3ccccc3)c2C(=O)OC(C)C)C1 (stereo not given)	-22.9%	-1.2%	?	-13.5%	-12.0%	-3.7%	-23.0%	-10.1%
